High-throughput results deposited in PubChem by National Center for Advancing Translational Sciences (NCATS).
TRPML1 agonist – human mucolipin-1 channel agonism. Q9GZU1. TRPML1-expressing cells, Ca2+ dye fluorescence, FDSS; host cell line not named in the record; reference of the full effect not given here. activation, % (concentration not given with the values). 410,000 compounds, 0.12% hits. AID 624414; in the data active = activation above about 50%; inconclusive = about 30% to 50%; inactive = below about 30%; further: 0% is about no effect; the text of the record puts the active cut at 80%
Target sequence (Q9GZU1 whole entry, looked up): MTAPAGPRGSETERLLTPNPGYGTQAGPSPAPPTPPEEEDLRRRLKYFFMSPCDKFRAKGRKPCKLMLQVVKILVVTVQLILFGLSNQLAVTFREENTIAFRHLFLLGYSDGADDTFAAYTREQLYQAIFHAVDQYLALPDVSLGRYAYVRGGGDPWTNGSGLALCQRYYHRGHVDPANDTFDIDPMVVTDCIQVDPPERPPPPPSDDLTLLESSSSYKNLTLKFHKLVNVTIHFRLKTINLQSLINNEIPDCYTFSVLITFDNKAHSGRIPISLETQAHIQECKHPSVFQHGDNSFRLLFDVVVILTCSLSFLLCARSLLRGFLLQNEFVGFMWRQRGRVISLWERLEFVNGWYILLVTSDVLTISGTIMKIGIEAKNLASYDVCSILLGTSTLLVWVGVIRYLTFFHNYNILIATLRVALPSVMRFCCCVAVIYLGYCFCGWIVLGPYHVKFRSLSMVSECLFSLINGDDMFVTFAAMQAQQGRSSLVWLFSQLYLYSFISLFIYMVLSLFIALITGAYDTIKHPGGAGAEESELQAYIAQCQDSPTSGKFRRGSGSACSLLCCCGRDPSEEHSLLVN
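Cells: TRPML1-DL, 1X Tet inducer, ~16 h at 37 degrees C/5% CO2. Dye: ABD Ca8 no-wash + quencher, 45-90 min RT. Read: 10 s baseline, compound add, 110 s agonist phase; 54-4 EC80 (4uM final), 110 s antagonist phase.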
TRPV1 PAM – enhances activation of the human vanilloid receptor TRPV1. Q8NER1. TRPV1-expressing cells, Fluo-8 calcium influx, capsaicin EC20 potentiation; host cell line not named in the record; control for the full effect not named in the record. potentiation, % at 8.33 µM. 320,000 compounds, 0.02% hits. AID 540277; active means potentiation above 80%; inconclusive means 30% to 80%; inactive means below 30%; further: 0% is about no effect
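Fluo-8 calcium influx in TRPV1-expressing cells, kinetic read (ex 480/em 520 nm). Compound added and read 3 min for agonist activity, followed by capsaicin at EC20 final and 2 min further read for enhancement.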
D2 PAM – human D2 receptor positive allosteric modulation. potentiation, % (no concentration beside the values). AID 624464. P14416. 360,000 compounds, 0.23% hits. DiscoveRx D2 beta-arrestin cells, luminescence, 90 min; 100% = 57 uM dopamine signal; active = potentiation of 50% or more; inconclusive = 30% to 50%; inactive = 30% or less;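 further: compound concentration not given in the record; tested on top of an EC20 dose of dopamine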
Target sequence (P14416 whole entry, looked up): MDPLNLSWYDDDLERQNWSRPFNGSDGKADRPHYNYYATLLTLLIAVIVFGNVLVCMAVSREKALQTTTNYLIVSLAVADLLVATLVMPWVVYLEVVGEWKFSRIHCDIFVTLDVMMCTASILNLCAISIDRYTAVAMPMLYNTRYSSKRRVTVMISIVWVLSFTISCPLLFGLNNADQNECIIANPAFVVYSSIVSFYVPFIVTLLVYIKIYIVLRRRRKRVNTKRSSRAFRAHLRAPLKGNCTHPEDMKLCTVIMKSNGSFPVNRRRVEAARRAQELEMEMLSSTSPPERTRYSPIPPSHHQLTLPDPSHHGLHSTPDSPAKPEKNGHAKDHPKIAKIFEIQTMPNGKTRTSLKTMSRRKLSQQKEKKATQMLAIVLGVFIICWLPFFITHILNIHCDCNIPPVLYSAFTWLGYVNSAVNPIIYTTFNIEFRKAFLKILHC
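PathHunter beta-arrestin assay in DiscoveRx D2 cells. Compounds were added with an EC20 of dopamine (50 nM final) for 90 min at 37 deg C. Luminescence was read 1 h after detection reagent, with 57 uM dopamine as the EC100 control.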
CtBP-E1A blk – CtBP/E1A binding inhibition | AlphaScreen GST-E1A/His-CtBP binding, 1536-well; hits give low values; control for the full effect not named in the record | activity change, % (concentration not given with the values) | 340,000 compounds, 0.49% hits | AID 651724; in the data active means activity change below about -65%; inconclusive means about -30% to -65%; inactive means above about -30%; further: on the % scale 0 is the no-effect control and ±100 the full control effect
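Homogeneous bead-based format: GST-tagged E1A captured on glutathione donor beads, His-tagged CtBP on nickel acceptor beads; compounds precede bead addition by 2 h at 37 °C.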
Six1-Eya2 inh – Six1/Eya2 interaction inhibition; activity change, % (no concentration beside the values); AID 651725; 360,000 compounds, 0.56% hits; AlphaScreen GST-Six1/His-Eya2 binding, biochemical; hits give low values; control for the full effect not named in the record; in the data active = activity change below about -65%; inconclusive = about -30% to -65%; inactive = above about -30%; further: on the % scale 0 is the no-effect control and ±100 the full control effect
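Six1/Eya2 binding was read as AlphaScreen signal after compounds were pinned into GST-Six1 plus His-tagged Eya2 (5X stock 250/500 nM) in pH 8.0 Tris/NaCl/TCEP buffer, beads added, then incubated 1 h, 37 C, dark.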
TRPML1 inh – blocks the human TRPML1 channel; AID 624415; Q9GZU1; TRPML1-inducible cells, Ca2+ dye fluorescence, FDSS; hits give low values; inhibition of EC80 agonist-evoked calcium signal; 390,000 compounds, 0.02% hits; activity change, negative = inhibition, % (no concentration beside the values); in the data active means activity change below about -50%; inconclusive means about -30% to -50%; inactive means above about -30%;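 further: stimulus is agonist 54-4 at its EC80 concentration; on the % scale 0 is the no-effect control and ±100 the full control effect; compound concentration not given in the record; the text of the record puts the active cut at -80%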
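TRPML1-DL cells, Tet-induced overnight (~16 h, 37 °C) at 1,500 cells/well, were loaded with Ca8 no-wash dye plus quencher for 45-90 min at room temperature. Compounds were pinned during FDSS kinetic reading; agonist 54-4 at EC80 (4 uM final) then added.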
* = called active by the depositor. An unsorted share of the library; about 0.95% have a hit in one of these screens.

How did Cc1cc(C)n2nc(C(=O)N3CCCC(CNS(=O)(=O)c4cccs4)C3)cc2n1 (centres undefined) do in these assays?
TRPML1 agonist: 0.6; TRPV1 PAM: 7; D2 PAM: -5; CtBP-E1A blk: -12; Six1-Eya2 inh: 7; TRPML1 inh: -3

How did COC(=O)c1cc(NC(=O)c2ccccc2F)cc(C(=O)OC)c1 do in these assays?
TRPML1 agonist: 0.9; TRPV1 PAM: 15; D2 PAM: -3; CtBP-E1A blk: -21; Six1-Eya2 inh: 1; TRPML1 inh: -19

How did COc1ccc(S(=O)(=O)N2CCN(C)CC2)cc1NC(=O)c1ccccc1F do in these assays?
TRPML1 agonist: 0.4; TRPV1 PAM: 2; D2 PAM: -9; CtBP-E1A blk: inconclusive; Six1-Eya2 inh: inconclusive; TRPML1 inh: -10

How did COc1ccc(NC(=O)c2[nH]c(C)c(C(C)=O)c2C)cc1Cl do in these assays?
TRPML1 agonist: -1.2; TRPV1 PAM: -18; D2 PAM: 0; CtBP-E1A blk: -23; Six1-Eya2 inh: inconclusive; TRPML1 inh: -2

What do the screens show for `Cc1cc([N+](=O)[O-])ccc1NCc1cccc([N+](=O)[O-])c1`?
TRPML1 agonist: 1.8; TRPV1 PAM: inconclusive; D2 PAM: -7; CtBP-E1A blk: -7; Six1-Eya2 inh: -18; TRPML1 inh: 3

Results for CN(C)S(=O)(=O)c1ccc(C(=O)NCCSc2ccc(Br)cc2)cc1 ?
TRPML1 agonist: 0.8; TRPV1 PAM: -17; D2 PAM: -14; CtBP-E1A blk: -15; Six1-Eya2 inh: 12; TRPML1 inh: -2

How did O=C(C1CCN(S(=O)(=O)Cc2ccccc2)CC1)N1CCCc2ccccc21 do in these assays?
TRPML1 agonist: 1.1; TRPV1 PAM: -8; D2 PAM: -18; CtBP-E1A blk: 0; Six1-Eya2 inh: -1; TRPML1 inh: -6

What do the screens show for `CC(=O)Nc1ccc(S(=O)(=O)C(C#N)c2nc3ccccc3nc2NCCO)cc1` (centres undefined)?
TRPV1 PAM: 18; D2 PAM: -8; CtBP-E1A blk: inconclusive; Six1-Eya2 inh: -10

What do the screens show for `COc1cccc(CC(=O)Nn2c(C)nc3ccccc3c2=O)c1`?
TRPML1 agonist: -0.1; TRPV1 PAM: -6; D2 PAM: -11; CtBP-E1A blk: -3; Six1-Eya2 inh: -3; TRPML1 inh: -18

How did CNS(=O)(=O)c1cccc(C(=O)NCC2(N3CCOCC3)CCCCC2)c1 do in these assays?
TRPML1 agonist: 0.2; TRPV1 PAM: 8; D2 PAM: -22; CtBP-E1A blk: 17; Six1-Eya2 inh: 2; TRPML1 inh: -5

Results for CCOC(=O)N1CCN(C(=O)C[C@@H]2C[C@@]3(C(=O)OC)CCCCC=C3N(Cc3ccco3)C2=O)CC1 ?
TRPML1 agonist: 0.0; CtBP-E1A blk: -2; Six1-Eya2 inh: 1

How did O=c1[nH]c2nc(Cl)nc(Cl)c2[nH]1 do in these assays?
TRPML1 agonist: -0.5; D2 PAM: 8; CtBP-E1A blk: -6; Six1-Eya2 inh: -2; TRPML1 inh: 6

How did O=c1c(-c2ccccc2)coc2c(CN3CCCC3)c(O)ccc12 do in these assays?
TRPML1 agonist: 0.5; TRPV1 PAM: 18; D2 PAM: -8; CtBP-E1A blk: 3; Six1-Eya2 inh: -2; TRPML1 inh: 5

What do the screens show for `Cc1ccc(C)n1-c1ccc(C(=O)NC2CCN(Cc3ccccc3)CC2)cc1`?
TRPML1 agonist: 0.3; TRPV1 PAM: -5; D2 PAM: -41; CtBP-E1A blk: 0; Six1-Eya2 inh: 2; TRPML1 inh: 0

How did O=C1CCN(CCCc2ccccc2)CCN1CCO do in these assays?
TRPML1 agonist: -0.3; TRPV1 PAM: -28; D2 PAM: -8; CtBP-E1A blk: -5; Six1-Eya2 inh: -24; TRPML1 inh: 10

Results for CCC(CC)=NNc1cccc([N+](=O)[O-])c1 ?
TRPML1 agonist: 1.2; TRPV1 PAM: -11; D2 PAM: 10; CtBP-E1A blk: -8; Six1-Eya2 inh: -11; TRPML1 inh: 33

How did NC(=O)NC(=O)Nc1ccccc1Cl do in these assays?
TRPML1 agonist: 0.8; TRPV1 PAM: 19; D2 PAM: 16; CtBP-E1A blk: 1; Six1-Eya2 inh: 2; TRPML1 inh: -10

How did CCCc1cc(=O)[nH]c(SCC(=O)C(C)(C)C)n1 do in these assays?
TRPML1 agonist: 4.3; TRPV1 PAM: 9; D2 PAM: 6; CtBP-E1A blk: -1; Six1-Eya2 inh: 6; TRPML1 inh: 2

What do the screens show for `O=C(Nc1ccc2oc(=O)ccc2c1)c1ccccc1[N+](=O)[O-]`?
TRPML1 agonist: 3.9; TRPV1 PAM: 8; D2 PAM: -8; CtBP-E1A blk: 0; Six1-Eya2 inh: 1; TRPML1 inh: -4

How did COc1ccc(NS(=O)(=O)c2cccc(C(=O)NCC(c3cccs3)N3CCOCC3)c2)cc1 (centres undefined) do in these assays?
TRPML1 agonist: 1.3; D2 PAM: 1; CtBP-E1A blk: 3; Six1-Eya2 inh: 2; TRPML1 inh: -5

Results for COc1ccc(CCN2C(=O)NC(NS(=O)(=O)c3ccccc3)(C(F)(F)F)C2=O)cc1OC (centres undefined) ?
TRPML1 agonist: -0.5; TRPV1 PAM: -2; D2 PAM: 2; CtBP-E1A blk: -8; Six1-Eya2 inh: 6; TRPML1 inh: -16

How did CC(=O)c1sc2c(c1OC(=O)c1ccc(Cl)cc1)c(=O)n(-c1ccccc1)c(=S)n2-c1ccccc1 do in these assays?
TRPML1 agonist: -0.3; D2 PAM: -6; CtBP-E1A blk: 5; Six1-Eya2 inh: -3; TRPML1 inh: 35

What do the screens show for `Cc1ccc2c(n1)CC(C)(C)CC2=O`?
TRPML1 agonist: -0.9; TRPV1 PAM: -1; D2 PAM: 4; CtBP-E1A blk: 2; Six1-Eya2 inh: 3; TRPML1 inh: 2

Results for Cc1cc(C)cc(C(=O)NCCCc2ccccc2)c1 ?
TRPML1 agonist: 1.6; TRPV1 PAM: 23; D2 PAM: -9; CtBP-E1A blk: 13; Six1-Eya2 inh: 2; TRPML1 inh: 2

Results for CCOC(=O)c1c(NC(=O)COc2ccccc2OCC)sc2c1CC(C)(C)NC2(C)C ?
TRPML1 agonist: 0.9; TRPV1 PAM: 16; D2 PAM: -6; CtBP-E1A blk: -7; Six1-Eya2 inh: -6; TRPML1 inh: 15

How did O=C1COc2ccc(C(=O)COC(=O)c3cccnc3Cl)cc2N1 do in these assays?
TRPML1 agonist: 1.7; TRPV1 PAM: -4; D2 PAM: -27; CtBP-E1A blk: -9; Six1-Eya2 inh: 6; TRPML1 inh: -16

How did CC(=O)NC(NC(C)=O)c1cccc(OCc2ccccc2)c1 do in these assays?
TRPML1 agonist: -0.3; TRPV1 PAM: 3; D2 PAM: -10; CtBP-E1A blk: -5; Six1-Eya2 inh: -9; TRPML1 inh: 3

What do the screens show for `COc1ccccc1NS(=O)(=O)c1ccc(NN=C2CCCC2)c([N+](=O)[O-])c1`?
TRPML1 agonist: 0.2; TRPV1 PAM: 16; D2 PAM: 15; CtBP-E1A blk: inconclusive; Six1-Eya2 inh: inconclusive; TRPML1 inh: 0

How did CC(C)NC(=O)COc1cccc2ccccc12 do in these assays?
TRPML1 agonist: -0.5; TRPV1 PAM: -16; D2 PAM: -8; CtBP-E1A blk: 15; Six1-Eya2 inh: 2; TRPML1 inh: 10

Results for COc1ccc(/C=C/C(=O)OCc2cccc([N+](=O)[O-])c2)cc1 ?
TRPML1 agonist: 3.7; TRPV1 PAM: 3; D2 PAM: 29; Six1-Eya2 inh: -15; TRPML1 inh: 48

What do the screens show for `CN(C(=O)COC(=O)/C=C/c1ccc(F)cc1)c1c(N)n(Cc2ccccc2)c(=O)[nH]c1=O`?
TRPML1 agonist: 0.0; TRPV1 PAM: -8; D2 PAM: -18; CtBP-E1A blk: 4; Six1-Eya2 inh: -1; TRPML1 inh: -3

Results for COC(=O)c1cn(C)c2ccc(S(=O)(=O)N3CC(C)CC(C)C3)cc2c1=O (centres undefined) ?
TRPML1 agonist: 1.6; TRPV1 PAM: -5; D2 PAM: 4; CtBP-E1A blk: 10; Six1-Eya2 inh: -2; TRPML1 inh: -1

How did O=C(NCc1ccc(F)cc1)C1CCN(S(=O)(=O)N2CCC3(CC2)OCCO3)CC1 do in these assays?
TRPML1 agonist: 0.1; TRPV1 PAM: -5; D2 PAM: -5; CtBP-E1A blk: 8; Six1-Eya2 inh: 0; TRPML1 inh: 6

What do the screens show for `O=C(CCl)Nc1cc(S(=O)(=O)N2CCCCCC2)ccc1Cl`?
TRPML1 agonist: 0.0; TRPV1 PAM: -8; D2 PAM: -15; CtBP-E1A blk: -2; Six1-Eya2 inh: 10; TRPML1 inh: -22

What do the screens show for `COC(=O)c1ccccc1NC(=O)CN1CCOCC1`?
TRPML1 agonist: -0.1; TRPV1 PAM: 1; D2 PAM: -11; CtBP-E1A blk: 5; Six1-Eya2 inh: 6; TRPML1 inh: -10

What do the screens show for `Cc1nc2sc3c(=O)[nH]nnc3c2c(C)c1Br`?
TRPML1 agonist: 0.9; TRPV1 PAM: -6; D2 PAM: -8; CtBP-E1A blk: inconclusive; Six1-Eya2 inh: inconclusive; TRPML1 inh: 34

Arranged by count of non-hydrogen atoms (smallest number first): some entries from above
How did COc1ccc(NC(=O)c2[nH]c(C)c(C(C)=O)c2C)cc1Cl do in these assays?
TRPML1 agonist: -1.2; TRPV1 PAM: -18; D2 PAM: 0; CtBP-E1A blk: -23; Six1-Eya2 inh: inconclusive; TRPML1 inh: -2

How did O=C1COc2ccc(C(=O)COC(=O)c3cccnc3Cl)cc2N1 do in these assays?
TRPML1 agonist: 1.7; TRPV1 PAM: -4; D2 PAM: -27; CtBP-E1A blk: -9; Six1-Eya2 inh: 6; TRPML1 inh: -16

Results for COC(=O)c1cn(C)c2ccc(S(=O)(=O)N3CC(C)CC(C)C3)cc2c1=O (centres undefined) ?
TRPML1 agonist: 1.6; TRPV1 PAM: -5; D2 PAM: 4; CtBP-E1A blk: 10; Six1-Eya2 inh: -2; TRPML1 inh: -1

(further entries)
Results for O=C1CCCC(O)=C1C=Nc1ccc(O)cc1 ?
TRPML1 agonist: -0.7; TRPV1 PAM: 7; D2 PAM: inconclusive; CtBP-E1A blk: 5; Six1-Eya2 inh: 5; TRPML1 inh: -4

How did O=[N+]([O-])c1ccc(OCC(O)CN(CCO)CCO)cc1 (centres undefined) do in these assays?
TRPML1 agonist: -0.1; TRPV1 PAM: 6; D2 PAM: -5; CtBP-E1A blk: 6; Six1-Eya2 inh: 10; TRPML1 inh: -10

Results for Cc1cc(NC(=O)c2ccccc2[N+](=O)[O-])ccc1Br ?
TRPML1 agonist: -0.4; TRPV1 PAM: -18; D2 PAM: -8; CtBP-E1A blk: 0; Six1-Eya2 inh: -15; TRPML1 inh: -23

How did NC(=NCc1ccccc1)C(N=Nc1ccccc1)C(=O)NCc1ccccc1 (centres undefined) do in these assays?
TRPML1 agonist: 0.2; D2 PAM: -8; CtBP-E1A blk: -3; Six1-Eya2 inh: -6; TRPML1 inh: 0

How did COc1cc(C(=O)Nc2sc3c(c2C(=O)NCc2ccco2)CCCC3)cc(OC)c1OC do in these assays?
TRPML1 agonist: 2.1; TRPV1 PAM: 21; D2 PAM: -8; CtBP-E1A blk: 10; Six1-Eya2 inh: 5; TRPML1 inh: 9
